HCMV UL50-53 inh = inhibitors of HCMV UL50-UL53 nuclear egress complex interaction | HTRF UL50-UL53 interaction, normalized percent inhibition | inhibition, % (no concentration beside the values) | actives 0.15% (n = 190,000);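 active means both replicates at 50% or more, plus weaker picks with an unusually low signal ratio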;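 further: stock transfer was 100 nL into about 20 µL; 0% = negative control wells and 100% = wells with untagged competitor protein; inactives centre near -12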
GIV-Gai inh = inhibitors of GIV GBA-motif binding to rat Galpha-i3; P08753; Galpha-i3/FITC-GIV peptide fluorescence polarization, 90 min; stronger effect = lower value; scaled: aluminum fluoride 0%, vehicle 100%; percent of control (FP), % (no concentration beside the values); actives 0.42% (n = 210,000); AID 1224905;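 active means replicate mean at 85% of control or lower, very high polarization wells dropped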;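 further: wells of about 15 µL received 100 nL stock; the first replicate is given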
Target sequence (P08753 whole entry, looked up): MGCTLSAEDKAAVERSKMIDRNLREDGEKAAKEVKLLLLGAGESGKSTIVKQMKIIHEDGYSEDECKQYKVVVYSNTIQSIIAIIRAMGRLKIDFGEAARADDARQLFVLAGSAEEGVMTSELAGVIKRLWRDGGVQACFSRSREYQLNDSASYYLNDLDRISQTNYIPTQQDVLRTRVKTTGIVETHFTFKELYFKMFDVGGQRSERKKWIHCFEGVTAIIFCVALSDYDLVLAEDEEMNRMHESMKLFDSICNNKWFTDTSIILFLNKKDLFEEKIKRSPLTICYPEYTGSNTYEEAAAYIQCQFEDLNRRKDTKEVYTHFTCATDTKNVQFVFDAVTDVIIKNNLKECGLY
Sa growth 42C = inhibitors of Staphylococcus aureus growth at 42 °C. relative growth, % (test concentration not listed). actives 0.53% (n = 170,000). S. aureus RN4220 growth, OD600, 20 h; stronger effect = lower value;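 active means growth at 42 °C up to 50% and 20 or more points under that at 30 °C, or under 10% at both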;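 further: 300 nL library stock went into each well; scaled to the means of positive and negative controls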
Sa growth 42C second temp = recorded beside Sa growth 42C, whose call it bears; relative growth, %; measured here: growth at 30 °C;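 optical density after 20 h as mean of two plates; 100% = untreated growth and lower means inhibition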
The depositor's hits bear a star; / = no result given; & = joins results of further samples.

SMILES	HCMV UL50-53 inh	GIV-Gai inh	Sa growth 42C	Sa growth 42C second temp
Cc1ccc2oc(=O)c3cnn(CC(=O)NCCN4CCN(c5ccccc5F)CC4)c3c2c1	-1	102	95	89
O=C(O)c1cc(C(=O)O)n(Cc2ccccc2Cl)n1	-26	101	110	103
O=C(NC1CCCCC1)c1snc2ccc(Cl)cc12	4	/	95	99
O=C(CCNc1n[nH]c(=O)[nH]c1=O)N/N=C/c1ccccn1	-37	100	96	89
COc1ccc(NC(=O)c2sc3nc[nH]c(=O)c3c2C)cc1Cl	/	102	106	91
Cc1cc(-n2cnc(-c3cnoc3C)n2)no1	-19	106	103	88
CCCCn1c(O)c(Nc2ccc3c(c2)=NC(=O)N=3)c2ccccc21	10	/	96	91
Cc1cc(=O)oc2cc(OCC(=O)OCc3nnc(-c4ccccc4)o3)ccc12	-18	/	103	97
O=C(NCCN1CCCCC1)Nc1cccc2ccccc12	-37	/	94	131
CCO/C=C1\C(=O)C(C)(C)Oc2ccc3ccc(=O)oc3c21	-12	100	86	79
O=C(O)C(Cc1ccccc1)C(=O)O	-5	/	94	89
CSc1nc2scc(-c3cccs3)c2c(=O)n1CC(C)C	-9	/	105	84
Cc1cc(Cl)ccc1OCCCC(=O)NCc1ccncc1	-5	101	95	81
Cc1ccc(CNC(=O)CN2C(=O)C(C)(C)c3cc(S(=O)(=O)N4CCCC4)ccc32)cc1	-34	107	/	/
COc1ccc(-c2nc3n(c2C(=O)Nc2nc4ccc(F)cc4s2)CCS3(=O)=O)cc1	-24	110	/	/
CCOc1sc2nc(C)n(CC(=O)Nc3cccc(C)c3)c(=O)c2c1C	-11	110	78	109
Cc1ccccc1NC(=O)COc1coc(CN2CCN(Cc3ccccc3)CC2)cc1=O	-9	100	95	88
COc1cc(/C=C(\C#N)c2nc3ccc(C)cc3[nH]2)ccc1OCc1ccc(C)cc1	-8	106	99	80
COc1ccc(CC(=O)Nc2nccs2)cc1S(=O)(=O)N1CCOCC1	-27	/	97	74
CC(=O)NC1=NC(=O)/C(=C/c2ccccc2)S1	-84	107	80	78
CCC1CC(C)(C)CCN1C(=O)c1cc(=O)[nH]c(=O)[nH]1 (stereo not given)	-18	104	102	80
O=C(/C=C/c1cccs1)NCC1CCN(C(=O)/C=C/c2cccs2)CC1	-77	100	96	85
CCOC(=O)C1CCN(C(=O)COC(=O)c2ccccc2OCC)CC1	-17	/	85	94
O=C(C1CCCCC1)N1CCC(c2nc(-c3ccc(F)cc3)no2)CC1	-17	98	/	/
CCCCN(C)C(=O)CN1C(=O)c2cccnc2Oc2ccc(Cl)cc21	/	104	109	87
N#COc1ccc(Oc2ccc(OC#N)cc2)cc1	-4	99	104	85
O=C(NCCCN1CCC(Cc2ccccc2)CC1)c1nnc(Cc2ccc3c(c2)OCO3)o1	-4	100	103	97
COc1ccc(-c2cc(CCCC(=O)NCCc3cccs3)no2)cc1	3	107	93	95
CON(C)c1nc(OCCNC(=O)COc2ccc(Cl)cc2Cl)nc(N(C)C)n1	-6	104	/	/
CCC1CN(S(=O)(=O)c2cc(-c3cc(C)no3)ccc2OC)c2cc(C)ccc2O1 (stereo not given)	/	103	101	99

3 compounds picked at random from those above, as already listed:
SMILES	HCMV UL50-53 inh	GIV-Gai inh	Sa growth 42C	Sa growth 42C second temp
COc1ccc(CC(=O)Nc2nccs2)cc1S(=O)(=O)N1CCOCC1	-27	/	97	74
Cc1ccccc1NC(=O)COc1coc(CN2CCN(Cc3ccccc3)CC2)cc1=O	-9	100	95	88
CON(C)c1nc(OCCNC(=O)COc2ccc(Cl)cc2Cl)nc(N(C)C)n1	-6	104	/	/

(list continues)
SMILES	HCMV UL50-53 inh	GIV-Gai inh	Sa growth 42C	Sa growth 42C second temp
COc1c(N)cc(Oc2cccc(C(F)(F)F)c2)c2nc(C)cc(C)c12	3	/	35	38
COc1ccc(NC(=O)CNC(=O)Cn2ccc3ccccc3c2=O)cc1OC	7	106	94	102
CCOC(=O)CCc1c(C)nc(SCc2ccc(C(=O)O)cc2)c(C#N)c1C	1	102	100	81
C=CCNc1oc(-c2ccc(S(=O)(=O)N3CCC(C)CC3)cc2)nc1C#N	-22	101	/	/
Clc1ccc(N=Cc2c[nH]c3ccccc23)cc1Cl	-10	/	66	57
O=C(CSc1cccc[n+]1[O-])Nc1ccccc1OC(F)F	-14	/	88	89
O=C1CC(C(=O)N(Cc2ccco2)Cc2cccs2)CN1Cc1ccccc1 (stereo not given)	-18	/	87	89
O=C(NC1CCCCC1)N1CCCC1c1ccc(F)cc1 (stereo not given)	-4	98	/	/
CC(=O)Nc1ccc(OC(=O)CC2SC(=O)NC2=O)cc1 (stereo not given)	-12	103	/	/
O=S(=O)(c1ccc2c(c1)OCCO2)N1CCN(c2ccnc3cc(Cl)ccc23)CC1	3	/	117	103
COc1ccc(CCNS(=O)(=O)c2cc3c4c(c2)CCN4C(=O)CC3)cc1OC	-2	100	/	/
c1ccc2c(c1)nc1n2CN(C2CCCCC2)CN1	/	102	95	96
O=C(O)c1ccccc1C(=O)Nc1nccs1	-7	/	88	94
COc1cc(C(c2nnnn2Cc2ccco2)N2CCN(C3CCCC3)CC2)cc(OC)c1OC (stereo not given)	-32	104	107	96
O=C(O)CCC1CCC(=O)N1 (stereo not given)	/	94	87	87
CCn1c(=O)cc(OCC(=O)NCCCN2CCOCC2)c2ccccc21	/	104	101	92
CCN(CCCNc1nc(=S)[nH]c2ccccc12)c1ccccc1	/	104	128	55
CCN(C(=O)Cn1nc(-c2ccc(OC)cc2)ccc1=O)c1cccc(C)c1	-8	102	98	84
CCOc1ccc(NC(=O)CC2C(=O)N(C)C(=S)N2CCc2ccccc2)cc1 (stereo not given)	/	99	99	53
CCOC(=O)/C(C#N)=C/c1cn(Cc2ccccc2)c2ccccc12	20	109	110	103
Cc1ccc2c(c1)-c1onc(C(=O)N(Cc3ccco3)CC3CCCO3)c1CO2 (stereo not given)	-19	98	101	74
CCC1(C)Cc2c(sc3nc(SCC(=O)O)n(-c4ccccc4)c(=O)c23)CO1 (stereo not given)	4	104	/	/
Cn1c(=O)c(N2CCC(C(=O)NCCc3c[nH]c4ccc(Cl)cc34)CC2)nc2ccccc21	-22	96	/	/
COc1ccc(Nc2nc(N)nc(N)c2S(=O)(=O)c2ccccc2)cc1	-6	104	108	89
CCOC(=O)/C=c1\s/c(=C\c2ccsc2)c(=O)n1CC(=O)c1cc(C)n(Cc2ccco2)c1C	-8	/	101	98
CCOC(=O)N1CCN(C(=O)COC(=O)c2ccc(=O)n(Cc3ccccc3)n2)CC1	-35	/	71	92
Cc1cc(NC(=O)COc2ccc(C(C)C)cc2)n(-c2nc3c(c(=O)[nH]2)CCC3)n1	-7	100	/	/
CCc1ccc(Nc2nc(-c3cc4cccc(OC)c4oc3=O)c(CC)s2)cc1	/	111	110	97
COc1cccc(NC(=O)NC2CCN(c3cc(C)nc4ncnn34)CC2)c1	-5	105	/	/
c1ccc2c(c1)CNc1ccccc1C2	-26	99	105	101
O=C(NC(=Nc1ccccc1)N1CCOCC1)Nc1ccccc1	17	/	100	91
CCOC(=O)c1cc2ccc(O)cc2oc1=O	-100&-90	98	92	85
COc1cccc(CNC(=O)c2cnc(SC)nc2C)c1	-16	128	101	83
CC(NC(=O)c1ccco1)C(=O)OCc1cccc(C(F)(F)F)c1 (stereo not given)	-20	/	92	83
CCc1cccc(C)c1NC(=O)Cn1nc2c3c4c(sc3ncn2c1=O)CCCC4	-4	106	/	/
Cn1ncc(-c2nc(-c3ccc(Cl)cc3)cs2)c1N	-22	99	78	60
C=CCOC(=O)Nc1ccc(C(O)(C(=O)OCC)C(F)(F)F)cc1C (stereo not given)	6	111	104	102
O=C(NC(=O)C(F)(F)F)NC1CCCC1	8	102	93	97
COc1ccccc1COCC(O)CN1CCC(=O)CC1 (stereo not given)	-18	/	95	99
CCn1c(CN2CCC(C)CC2)nc2cc(NC(=O)COc3ccc(Cl)c(C)c3)ccc21	2	102	119	86
O=C(Nc1ccc2c(c1)OCCO2)c1ccccc1CSc1nc2ccccc2o1	4	/	98	108
OCCNCc1[nH]c2ccccc2c1Cl	-19	104	99	101
O=C(Cn1c(C(F)(F)F)nc2ccccc21)NCc1ccco1	-20	107	107	68
CN1C(=O)c2ccc(NC(=S)NC(=O)C(C)(C)C)cc2C1=O	-59	106	94	91
CCCN(CC1CC1)c1oc(-c2ccc(F)cc2)nc1C#N	-13	/	95	84
Cn1c2c(c3ccccc31)C(=O)C(Cn1ccnc1)CC2 (stereo not given)	-19	106	94	88
Cc1oc2ccc(O)c(CN3CCN(C)CC3)c2c1C(=O)Nc1ccccc1	-6	101	115	89
Cc1ccc2c(c1)C=C(C(=O)Nc1ncc(Cc3ccccc3F)s1)C=CO2	-18	103	/	/
Cc1ccc(CNC(=O)Cn2c(=O)n(-c3ccc(C)cc3)c(=O)c3c2cnn3C)cc1	-34	100	/	/
Cc1ccc(-c2nnc(Nc3cccc(O)c3)c3ccccc23)cc1S(=O)(=O)N1CCCCC1	-14	106	95	79
CCn1nnc2cc(C(=O)Nc3cccc(C)c3C)ccc21	/	109	87	96
Cc1ccccc1C(=O)Nc1ccc2c(c1)CCCN2C(=O)c1cccs1	/	98	88	74
CCOC(=O)COc1ccc(S(=O)(=O)N2CCN(Cc3ccc4c(c3)OCO4)CC2)cc1	0	99	108	106
COc1nc2c(C)cccc2cc1-c1noc(-c2ccc(C)cc2)n1	/	100	111	89
O=C(CSc1nncn1-c1ccccc1)Nc1ccccc1	-33	108	104	104
CCn1c(=O)c2sccc2n2c(SCc3ccc(F)cc3Cl)nnc12	-39	101	/	/
CNC(=O)CN(c1cccc(C)c1C)S(=O)(=O)c1ccccc1	/	101	99	82
CCc1nc2nc(C)c(CC(=O)Nc3ccc(Br)cc3)c(C)n2n1	-10	99	/	/
Cc1nc(-c2ccc(C)c(S(=O)(=O)N3CCC(C(=O)N4CCN(c5ccccc5)CC4)CC3)c2)no1	-27	98	/	/

Among those listed so far, 13 have fluorine:
SMILES	HCMV UL50-53 inh	GIV-Gai inh	Sa growth 42C	Sa growth 42C second temp
Cc1ccc2oc(=O)c3cnn(CC(=O)NCCN4CCN(c5ccccc5F)CC4)c3c2c1	-1	102	95	89
COc1ccc(-c2nc3n(c2C(=O)Nc2nc4ccc(F)cc4s2)CCS3(=O)=O)cc1	-24	110	/	/
O=C(C1CCCCC1)N1CCC(c2nc(-c3ccc(F)cc3)no2)CC1	-17	98	/	/
COc1c(N)cc(Oc2cccc(C(F)(F)F)c2)c2nc(C)cc(C)c12	3	/	35	38
O=C(CSc1cccc[n+]1[O-])Nc1ccccc1OC(F)F	-14	/	88	89
O=C(NC1CCCCC1)N1CCCC1c1ccc(F)cc1 (stereo not given)	-4	98	/	/
CC(NC(=O)c1ccco1)C(=O)OCc1cccc(C(F)(F)F)c1 (stereo not given)	-20	/	92	83
C=CCOC(=O)Nc1ccc(C(O)(C(=O)OCC)C(F)(F)F)cc1C (stereo not given)	6	111	104	102
O=C(NC(=O)C(F)(F)F)NC1CCCC1	8	102	93	97
O=C(Cn1c(C(F)(F)F)nc2ccccc21)NCc1ccco1	-20	107	107	68
CCCN(CC1CC1)c1oc(-c2ccc(F)cc2)nc1C#N	-13	/	95	84
Cc1ccc2c(c1)C=C(C(=O)Nc1ncc(Cc3ccccc3F)s1)C=CO2	-18	103	/	/
CCn1c(=O)c2sccc2n2c(SCc3ccc(F)cc3Cl)nnc12	-39	101	/	/

Screens deposited in PubChem by ICCB-Longwood Screening Facility, Harvard Medical School.
